Screening results (PubChem)
NS1 inh = influenza NS1 inhibition; S. cerevisiae slowed by influenza A NS1, growth recovery by OD600; Potency, µM (top dose mostly 46.1 µM), for inactives: at the top dose activity, positive = more growth; 0.4% of 270,000 active; AID 2326; further: actives are rising curves; nearly all actives have a fitted effect of over 50% in size
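In this qHTS, NS1 from influenza A is expressed in budding yeast, where it slows growth. Cells are switched from glucose to 2% galactose medium (pH 6.0, -URA), treated with compound, and growth recovery is read at OD600.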
StopGo reporter = FMDV 2A StopGo reporter, luciferase signal; human cells with a luciferase reporter of 2A StopGo recoding; control for the full effect not named in the record; Potency, µM (doses to about 57.9 µM), for the others: at the highest dose signal change, negative = less light; 1.2% of 410,000 active; AID 1159524; active = well fitted falling curve with a large enough effect; inconclusive = small, poorly fitted or top-dose-only effect; inactive = no such curve, though single readings can be large or run the other way; tested in HEK293T cells; further: on the % scale 0 is the no-effect control and ±100 the full control effect; nearly all actives have a fitted effect of over 45% in size; luciferase light after 4 h
LASV entry inh = Lassa virus entry inhibition. Lassa virus pseudotype entry inhibition, cell reporter; control for the full effect not named in the record. Potency, µM (top dose mostly 37.9 µM), for the others: at the top dose activity change, negative = inhibition, usual class: inhibitors. 1.2% of 300,000 active. AID 540256; active means well fitted inhibition curve with a large enough effect; inconclusive means small, poorly fitted or top-dose-only effect, or effect the other way; inactive means flat fitted curve, though single readings scatter; tested in HEK293 cells; further: on the % scale 0 is the no-effect control and ±100 the full control effect; nearly all actives have a fitted effect of over 50% in size; luciferase read-out
RE007 growth inh = less growth of the S. pombe RE007 Vpr strain | S. pombe RE007 Vpr strain, BacTiter-Glo ATP luminescence, 24 h; control for the full effect not named in the record | Potency, µM (series often up to 92.2 µM), inactives show at the top dose activity change, negative = less growth | 0.21% of 360,000 active; active = well fitted falling curve with a large enough effect; inconclusive = small, poorly fitted or top-dose-only effect; inactive = no such curve, though single readings can be large or run the other way;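 further: on the % scale 0 is the no-effect control and ±100 the full control effect; nearly all actives have a fitted effect of over 50% in size; the assay follows cell death caused by Vpr and the record does not say whether a fall means rescue or toxicity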
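Fission yeast RE007 carrying one integrated HIV-1 vpr copy, seeded at OD 0.01 in PMG+AL medium with 23 nL pinned compound. Grown 24 h at 30 degrees; viability read by BacTiter-Glo luminescence after 5 min.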
Cruzain Triton = cruzain (T. cruzi) inhibition with detergent; Potency, µM, without a hit: max response, negative = inhibition, most hits filed as inhibitors; 0.43% of 200,000 active; purified cruzain, Z-FR-AMC fluorescence, 0.01% Triton; P25779; active means well fitted curve in the direction sought with a large enough effect; inconclusive means small, poorly fitted or top-dose-only effect, or another doubt; inactive means no such curve, though single readings can be large; an effect the other way counts as inactive or inconclusive;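 further: plate controls were neutral wells for no effect and buffer without enzyme for full effect; nearly all actives have a fitted effect of over 40% in size; top concentration of the series not given in the record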
Target sequence (P25779 123-467 limits assumed): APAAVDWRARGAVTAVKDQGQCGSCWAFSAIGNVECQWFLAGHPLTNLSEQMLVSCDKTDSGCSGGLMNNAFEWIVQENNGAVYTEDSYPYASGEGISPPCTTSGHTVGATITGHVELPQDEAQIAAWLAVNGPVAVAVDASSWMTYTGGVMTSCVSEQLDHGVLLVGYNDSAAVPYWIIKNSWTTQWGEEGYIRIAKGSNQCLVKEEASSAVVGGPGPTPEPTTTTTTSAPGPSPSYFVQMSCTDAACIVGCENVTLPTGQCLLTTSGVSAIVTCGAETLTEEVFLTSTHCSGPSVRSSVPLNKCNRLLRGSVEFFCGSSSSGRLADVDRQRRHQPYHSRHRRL
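Purified cruzain (1.5 nM final) was preincubated with compounds for 15 min at room temperature in 100 mM sodium acetate pH 5.5, 5 mM DTT, 0.01% Triton X-100. Reaction started with 2 uM Z-FR-AMC; AMC fluorescence change over 60 s gave activity.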
SARS PLpro yeast = SARS-CoV PLP inhibition in yeast | S. cerevisiae expressing SARS-CoV PLpro, growth rescue; control for the full effect not named in the record | AID 485353 | 0.19% of 330,000 active | Potency, µM (titrated, usually from 32.9 µM), for the others: at the top dose activity, positive = growth rescue; further: 0% is about no effect; nearly all actives have a fitted effect of over 55% in size; growth read by luminescence after 48 h
Cruzain noTriton = inhibitors of Trypanosoma cruzi cruzain without detergent; P25779; purified cruzain, Z-FR-AMC fluorescence, no detergent; Potency, µM, for inactives: max response, negative = inhibition, usual class: inhibitors; 2.3% of 200,000 active; AID 1476; active means well fitted curve in the direction sought with a large enough effect; inconclusive means small, poorly fitted or top-dose-only effect, or another doubt; inactive means no such curve, though single readings can be large; an effect the other way counts as inactive or inconclusive;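 further: plate controls were enzyme without inhibitor for no effect and buffer without enzyme for full effect; nearly all actives have a fitted effect of over 40% in size; top concentration of the series not given in the record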
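Detergent-free condition (0.00005% Triton X-100) in acetate buffer pH 5.5 with DTT. 1.5 nM enzyme and compound were pre-mixed 15 min, then 2 uM Z-FR-AMC substrate added; reaction progress from fluorescence change between first and third reads (60 s).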
Marburg entry inh = inhibitors of Marburg virus binding or cell entry; AID 540276; Marburg virus pseudotyped entry inhibition, cell reporter; control for the full effect not named in the record; about a third of the inactives were read at about 46 µM; 1.8% of 300,000 active; Potency, µM (titrated, usually from 37.8 µM), for the others: top-dose activity change, negative = inhibition, actives largely listed as inhibitors; active = well fitted inhibition curve with a large enough effect; inconclusive = small, poorly fitted or top-dose-only effect, or effect the other way; inactive = flat fitted curve, though single readings scatter; tested in HEK293 cells; about a fifth of its hits are not listed in these tables; further: on the % scale 0 is the no-effect control and ±100 the full control effect; luciferase read-out
The depositor's hits bear a star; ? = inconclusive; . = not tested or not shown; & = joins results of further samples; [ ] = another dose, or the depositor's remark. Unless noted, the call rests on the fitted dose curve; in most records, active means well fitted rising curve with a large enough effect; inconclusive means small, poorly fitted or top-dose-only effect; inactive means no such curve, though single readings can be large or run the other way. Potency means the concentration at half of the fitted maximal effect.

SMILES	NS1 inh	StopGo reporter	LASV entry inh	RE007 growth inh	Cruzain Triton	SARS PLpro yeast	Cruzain noTriton	Marburg entry inh
COc1ccc(Nc2c3c(nc4ccc(C)cc24)CCC3)cc1	-2%	?	.	-13%	.	1%	.	.
COc1ccc(C2CC(C)(c3ccc(OC)cc3)Nc3ccccc3N2)cc1 (centres undefined)	1%	16%	?	0%	.	-2%	.	?
CN(C)/C=C(/C(=O)c1ccccc1Cl)S(C)(=O)=O	2%	2%	1%	15%	.	1%	.	?
CC(C)c1ccc(SCc2noc(C(=O)NCC3CCCO3)c2C(=O)O)cc1 (centres undefined)	14%	-3%	.	22%	3.3%	-6%	?	.
c1ccc(-c2nn3c(-c4ccccc4)nnc3s2)cc1	-10%	-6%	-1%	5%	-1.7%	5%	-5%	5%
Fc1ccc(-c2nnc(CSc3nnc4ccccn34)o2)cc1	2%	58%[activator]	15%	-28%	-1.7%	5%	6%	?
O=C(Nc1nnc(-c2ccc(Br)cc2)o1)C1=COCCO1	.	36%[activator]	1%[46.1 µM]	-7%	.	2%	.	28%
COc1ccc(-n2nc(C(=O)O)c3ccccc3c2=O)c(OC)c1	17%	.	5%	-5%	-3.2%	-2%	-14%	5%
Cc1cccc(-c2nc3ccc(C(=O)N4CCC5(CC4)OCCO5)cc3nc2-c2cccc(C)c2)c1	-1%	19%	?	3%	.	-3%	.	?
CNC(=O)CSc1cn(CC(=O)N(C(C)C)C(C)C)c2ccccc12	.	-8%	2%	6%	.	-1%	.	-11%
C=CCn1cc(C(=O)NCCCN(CC)CC)c(=O)c2cc(S(=O)(=O)N3CCC(C)CC3)ccc21	-3%	-21%	.	-2%	.	-3%	.	.
CC(C)n1cc(NC(=O)C2CC(c3cccc(Br)c3)=NO2)cn1 (centres undefined)	0%	8%	0%	34%	-5.8%	-2%	-1%	?
COc1ccc(C(=O)Cn2c(N3CCOCC3)nc3c2c(=O)n(C)c(=O)n3C)cc1	0%	.	.	.	2.7%	-1%	1%	.
Cc1ccc(S(=O)(=O)N2CCC(C(=O)NNC(=O)c3ccccc3O)CC2)cc1	.	-8%	2%	6%	.	1%	.	2%
COC(=O)COc1ccc(S(=O)(=O)NCc2ccncc2)cc1	-7%	?	.	6%	0.3%	5%	-3%	-4%
Cc1ccc(NC(=O)COc2ccc(-c3nn(C)c(=O)c4ccccc34)cc2)cc1	.	?	-6%[46.1 µM]	.	-1.4%	.	?	-19%[46.1 µM]
Cc1ccc(CNC(=O)CCCn2c(=O)c3ccccc3n(Cc3ccc(Cl)cc3)c2=O)cc1	.	-19%	14%[46.1 µM]	.	-1.3%	.	11%	0%[46.1 µM]
CN(N=Nc1ccc([N+](=O)[O-])cc1)c1ccccc1	-1%	58%[activator]	20%	-8%	-18%	25%	5%	?
CCn1c(=O)c(C(=O)NCc2ccccc2)c(O)c2ccccc21	-1%	-21%	.	2%	.	-5%	.	.
COc1ccc(OC)c(C2C(C#N)=C(N)Oc3cc(N)ccc32)c1 (centres undefined)	?	1%	-22%	-8%	3.3%	5%	?	?
COc1ccc(C2C(C(=O)Nc3cc(C)on3)c3ccccc3C(=O)N2C)cc1OC (centres undefined)	-10%	9%	2%	-4%	1.7%	1%	-12%	6%
CCOc1ccc(N2CC(C(=O)NCCc3ccccc3)CC2=O)cc1 (centres undefined)	0%	-14%	6%	9%	.	-1%	.	8%
COc1cc(C2CC(=O)N(Cc3cccc(F)c3)c3ccccc3S2)cc(OC)c1OC (centres undefined)	.	25µM*	.	.	-2.3%	.	?	-13%[46.1 µM]
N/C(CN1CCSCC1)=N\OCc1c(F)cccc1Cl	2%	34%[activator]	10%	6%	.	1%	.	0%[14.2 µM]
Oc1ccc(C=NC2CCCCC2)c(O)c1	0%	-2%	?	-23%	.	-3%	.	-3%[46.1 µM]
Cc1cc(NC(=O)COC(=O)CCS(=O)(=O)c2ccc(Cl)cc2)no1	8%	9%	-3%	7%	.	4%	.	-5%[46.1 µM]
O=C(c1ccccc1-c1ccccc1)N1CCCCC1	2%	-8%	4%[46.1 µM]	13%	.	0%	.	-9%[46.1 µM]
Cc1cc(C)n(-c2nnc(C)n2/N=C/c2ccco2)n1	7%	1%	6%	2%	4.4%	-2%	-1%	?
CCc1ccc(-n2c(=O)c3cccnc3n2CC(=O)NCc2ccc(F)cc2)cc1	.	-11%	-7%[46.1 µM]	.	-4.3%	.	9%	.
O=C1COc2ccc(C(=O)COC(=O)c3ccc([N+](=O)[O-])cc3Cl)cc2N1	.	?	2%	7%	.	-2%	.	1%
Cc1cc2nc(CCN3CCOCC3)n(S(=O)(=O)c3ccc(C(C)(C)C)cc3)c2cc1C	8%	35%[activator]	?	6%	-1.1%	7%	?	6%
Cc1ccc(CNS(=O)(=O)N(C)C)cc1	5%	-10%	-4%	-8%	2.5%	8%	-1%	-7%
CCOC(=O)C1(CCc2ccccc2)CCN(C(=O)c2cc(C)nc(C)n2)CC1	1%	43%[activator]	11%	0%	.	0%	.	10%[46.1 µM]
CN(C)c1ccc(/C=C(\Cl)c2nc3ccccc3s2)cc1	26%	10µM*	?	0%	-9.1%	-34%	-25%	?
CC(C)c1ccc(OCC(=O)Nc2c(Cl)ccc3nsnc23)cc1	.	-24%	?	.	-6.3%	.	-12%	?
COc1ccc(NC(=O)CCN2C(=O)C3CC=C(Cl)CC3C2=O)cc1 (centres undefined)	0%	11%	10%	-5%	-1.4%	12%	-16%	-6%
CCCCn1c(N)c(N(C)C(=O)C2CC(=O)N(Cc3ccco3)C2)c(=O)[nH]c1=O (centres undefined)	.	4%	0%	-9%	.	-11%	.	?
Cc1cc(Cl)ccc1C(=O)C1CCCN(C(=O)c2cc(C(C)C)no2)C1 (centres undefined)	-4%	-8%	-27%[46.1 µM]	-1%	.	-1%	.	-27%[46.1 µM]
Cc1ccccc1OCc1ccc(-c2nc(C#N)c(N3CCCCC3)o2)o1	.	-4%	2%[46.1 µM]	.	-17%	.	-26%	1%[46.1 µM]
CCCCNC(=O)C1CC(=O)N(c2ccc(OC)cc2)C1c1ccc(OC)cc1 (centres undefined)	0%	2%	10%	9%	2.9%	6%	6%	-3%
Cc1c(C(=O)NCCc2ccccc2)oc2ccc(S(=O)(=O)N3CCOCC3)cc12	-48%	0%	?	-5%	2.4%	3%	1%	18%&18%
NC(=O)CCN(Cc1ccccc1)S(=O)(=O)c1ccccc1	5%	-6%	?	21%	3.3%	-4%	-2%	-16%
COc1ccccc1OCc1ccc(C(=O)N2CCN(C(=O)c3ccco3)CC2)cc1	12%	?	-6%	2%	-2.8%	6%	21%	-3%
CCCCC1=CC2=CC(=O)C(C)(OC(=O)CC)C(=O)C2=CN1Cc1ccco1 (centres undefined)	2%	-20%	.	-11%	.	3%	.	.
O=C(CNCCc1ccccc1)Nc1ccc(C(=O)N2CCCCC2)cc1	-7%	16%	2%[46.1 µM]	16%	.	1%	.	11%[46.1 µM]
Cc1cccc(CC(=O)Nc2cc(C)c3c(=O)oc4ccccc4c3n2)c1	4%	-17%	.	-1%	-0.7%	2%	-17%	.
O=C(O)/C=C/c1cn(Cc2ccccc2Cl)nc1-c1ccccc1	4%	7%	.	-8%	.	0%	.	.
CCN(CC(=O)Nc1c(F)cccc1F)C(=O)c1cc2ccccc2oc1=O	.	18%	15%	-10%	.	-3%	.	?
COc1cccc(CNC(=O)c2cccc(-n3c(C)nc4cccnc43)c2)c1OC	.	-26%	10%[46.1 µM]	.	-2.8%	.	3%	.
Cn1cccc1Cc1nnc(SCC(=O)NCCc2ccccc2)n1-c1ccc(F)cc1	13%	-18%	.	-15%	3.1%	-1%	?	.

Other results follow:
SMILES	NS1 inh	StopGo reporter	LASV entry inh	RE007 growth inh	Cruzain Triton	SARS PLpro yeast	Cruzain noTriton	Marburg entry inh
NC(=O)[C@H]1CC2(CC(c3cccc(NC(=O)[C@H]4CCC(=O)N4)c3)=NO2)CN1C(=O)CC(c1ccccc1)c1ccccc1 (some centres undefined)	-46%	4%	.	4%	.	0%	.	.
COc1ccc(S(=O)(=O)N2CCOCC2)cc1NC(=O)Cc1sc(C)nc1-c1ccc(F)cc1	.	-13%	?	-6%	.	1%	.	19%
O=C(/C=C/c1ccc(O)c(O)c1)NC(=O)c1ccccc1O	5%	25%&18%	.	3%	-13%	4%	-17%	.
CCOC(=O)c1c(NC(=O)c2cc(-c3ccc(O)cc3)on2)sc(C(C)=O)c1C	-10%	-22%	8%	-4%	2.7%	-9%	5%	?
O=C(COC(=O)c1cc(Br)ccc1O)Nc1ccc2c(c1)OCCO2	.	0%	8%	2%	.	1%	.	26%[46.1 µM]
CCOc1ccccc1C=NNC(=O)c1cccc2ccccc12	.	-16%	15%	8%	.	.	.	1%
COc1ccccc1N1CCN(/N=C/c2ccc(C(=O)O)cc2)CC1	5%	?	.	5%	.	2%	.	.
CCOC(=O)c1cnc(-n2cc(C)cn2)nc1Nc1ccccc1OC	-7%	3%	-11%	-15%	5.6%	4%	?	2%
Fc1ccc(-c2csc(Nc3ccccn3)n2)cc1	1%	-25%	.	?	.	-4%	.	.
Cc1nc(N2CCN(c3ccccc3)CC2)[nH]c(=O)c1Cc1ccccc1	-41%	13%	?	0%	-1.0%	4%	-18%	2%
COc1ccc(/C=N/Nc2ncnc3sc4c(c23)CCCC4)cc1O	15%	4%	?	21%	-13%	-7%	?	?
CCN(C(=O)Cn1nc(C)c([N+](=O)[O-])c1C)C1CCS(=O)(=O)C1 (centres undefined)	.	-8%	13%	2%	.	3%	.	13%[46.1 µM]
CN1CCN(C(=O)C2=C[C@@H](c3ccccc3)C[C@@H](OCCCCO)O2)CC1	0%	-11%	.	-7%	.	-2%	.	.
CCOc1ccc(CNC(=O)C2CCN(S(=O)(=O)c3cn(C)cn3)CC2)cc1	.	-5%	0%[46.1 µM]	.	1.5%	.	-11%	.
Cc1nnc(N(Cc2ccccc2)C(=O)c2cnccn2)s1	-2%	10%	19%	7%	8.8%	5%	0%	10%

This is a random part of the collection; any-hit rate near 4.7%.
